ClpP mod – qHTS Assay for Activators of ClpP. purified B. subtilis ClpP, FRET peptide cleavage, 20 min. Potency, µM (series often up to 57.5 µM), for inactives: at the highest dose activity change, negative = active. 1.9% of 340,000 active. AID 651965, 2013; active = well fitted falling curve with a large enough effect; inconclusive = small, poorly fitted or top-dose-only effect; inactive = no such curve, though single readings can be large or run the other way; also: potency is read from the fitted curve at half-maximal effect; the source files actives as falling curves though it sought activators and does not explain the sign; nearly all actives have a fitted effect of over 65% in size; many hits overshoot -100%
Target sequence (P80244 whole entry, looked up): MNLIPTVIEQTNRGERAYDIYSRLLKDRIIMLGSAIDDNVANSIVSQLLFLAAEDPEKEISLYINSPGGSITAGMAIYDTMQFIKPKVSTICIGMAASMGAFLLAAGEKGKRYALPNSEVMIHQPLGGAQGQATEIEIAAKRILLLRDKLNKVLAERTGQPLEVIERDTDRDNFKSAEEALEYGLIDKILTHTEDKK
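Purified B. subtilis ClpP, 10 microg/mL final in Tris/HCl pH8 with KCl, BSA, glycerol and Tween-20, cleaved an Abz/nitrotyrosine-quenched decapeptide. Fluorescence (ex 320, em 430) was read at 0 and 20 min at room temperature. Delta was normalized to 5.8 microM ADEP and DMSO/no-enzyme controls.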
PINK1 expr mod – modulators of PINK1 expression; Potency, µM (highest dose often 76.6 µM), for the others: at the highest dose activation (PINK1 increase), usual class: activators; PINK1 immunofluorescence, high-content cytometry, 24 h; 0.2% of 410,000 active; active = well fitted activation curve with a large enough effect; inconclusive = small, poorly fitted or top-dose-only effect; inactive = flat fitted curve, though single readings scatter; cell line not stated here;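 also: potency is read from the fitted curve at half-maximal effect; % of control where 0% means no effect; nearly all actives have a fitted effect of over 65% in size; a mitochondrial uncoupler was the plate control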
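Cells are seeded, rested 12 hours, then given compound at five concentrations or DMSO for 24 hours. After fixation, blocking and antibody staining, PINK1 amount and mitochondrial localization are scored; CCCP serves as control.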
TRPV1 potentiator – potentiators of human vanilloid receptor 1 (TRPV1). Q8NER1. TRPV1-expressing cells, Fluo-8 calcium influx, capsaicin EC20 potentiation; host cell line not named in the record; control for the full effect not named in the record. potentiation, % at 8.33 µM. 0.02% of 320,000 active. AID 540277; active means potentiation above 80%; inconclusive means 30% to 80%; inactive means below 30%; also: 0% is about no effect
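TRPV1-expressing cells were cultured overnight at 35.5C and loaded with Fluo-8 calcium dye for 40 to 90 min at room temperature. After a 10 s baseline, compound was added and calcium influx was read kinetically for 3 min (ex 480/em 520 nm).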
TRPML1 ag – agonists of human TRPML1 channel | Q9GZU1 | TRPML1-expressing cells, Ca2+ dye fluorescence, FDSS; host cell line not named in the record; reference of the full effect not given here | activation, % (no concentration beside the values) | 0.12% of 410,000 active | AID 624414; in the data active = activation above about 50%; inconclusive = about 30% to 50%; inactive = below about 30%; also: 0% is about no effect; the text of the record puts the active cut at 80%
Target sequence (Q9GZU1 whole entry, looked up): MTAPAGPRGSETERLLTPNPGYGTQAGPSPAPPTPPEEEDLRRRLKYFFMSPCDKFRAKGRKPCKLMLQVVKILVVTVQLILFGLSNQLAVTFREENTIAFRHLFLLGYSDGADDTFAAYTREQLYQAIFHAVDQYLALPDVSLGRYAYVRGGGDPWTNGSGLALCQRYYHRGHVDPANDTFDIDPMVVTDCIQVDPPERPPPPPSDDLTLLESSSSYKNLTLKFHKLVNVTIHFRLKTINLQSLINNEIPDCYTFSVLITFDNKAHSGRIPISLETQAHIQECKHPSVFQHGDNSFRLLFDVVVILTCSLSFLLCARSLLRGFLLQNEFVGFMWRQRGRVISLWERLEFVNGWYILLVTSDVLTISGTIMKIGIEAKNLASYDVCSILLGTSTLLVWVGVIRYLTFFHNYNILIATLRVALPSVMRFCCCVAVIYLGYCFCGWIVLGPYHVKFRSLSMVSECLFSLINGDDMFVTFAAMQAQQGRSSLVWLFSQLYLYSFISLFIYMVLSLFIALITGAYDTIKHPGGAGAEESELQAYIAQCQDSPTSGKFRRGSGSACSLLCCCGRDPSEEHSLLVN
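Tet-induced TRPML1-DL cells, 1,500 per well, cultured overnight, were loaded with a no-wash Ca2+ dye for 45–90 min. Calcium fluorescence was recorded on the FDSS for 110 s after compound addition, before the EC80 agonist (4 uM 54-4) was added.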
TRPML1 inh – blocks the human TRPML1 channel; Q9GZU1; TRPML1-inducible cells, Ca2+ dye fluorescence, FDSS; stronger effect = lower value; inhibition of EC80 agonist-evoked calcium signal; activity change, negative = inhibition, % (no concentration beside the values); 0.02% of 390,000 active; AID 624415; in the data active means activity change below about -50%; inconclusive means about -30% to -50%; inactive means above about -30%;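 also: stimulus is agonist 54-4 at its EC80 concentration; % is scaled to controls: 0 for no effect and ±100 for the full control effect; compound concentration not given in the record; the text of the record puts the active cut at -80%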
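Tet-induced TRPML1-DL cells loaded with Ca8 no-wash calcium dye were read kinetically on FDSS. Compound addition was followed by EC80 agonist 54-4 (4 uM final); inhibition was read over 110 s.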
Menin-MLL FL inh – inhibitors of human menin-MLL interaction, wild-type MLL peptide | Fluorescence polarization, fluorescein-MLL peptide displacement from menin | FP activity change, % at 61.4 µM | 290,000 tested, under 10 active | AID 1766; inconclusive = falling polarisation curve, or a change in total fluorescence; inactive = total fluorescence flat and polarisation flat or rising; no compound was filed as active; the % refers to the polarisation; negative = inhibition;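 also: % of control where 0% means no effect; inhibitors lower the polarisation; unlabelled MLL peptide was the positive control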
Sfp PPTase inh – inhibitors of Bacillus subtilis Sfp phosphopantetheinyl transferase. 3.5% of 310,000 active. AID 1490. Potency, µM, for inactives: max response, negative = inhibition, most hits filed as inhibitors. Biochemical Sfp PPTase activity, qHTS. Q9F4F7; active = well fitted inhibition curve with a large enough effect; inconclusive = small, poorly fitted or top-dose-only effect, or another doubt; inactive = no such curve, though single readings can be large or run the other way;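 also: the enzyme is Sfp with the accession as filed and its product quenches rhodamine fluorescence; potency is read from the fitted curve at half-maximal effect; 0% = enzyme reaction without inhibitor and -100% = no enzyme wells; top concentration of the series not given in the record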
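Compounds were incubated with enzyme (final 15 nM) for 15 min at room temperature before substrate addition started the reaction. Fluorescence at 525 nm excitation, 598 nm emission was recorded immediately and after 30 minutes.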
* = called active by the depositor; ? = inconclusive; nt = not tested or not shown; [ ] = remark or other dose.

SMILES | ClpP mod | PINK1 expr mod | TRPV1 potentiator | TRPML1 ag | TRPML1 inh | Menin-MLL FL inh | Sfp PPTase inh
Cc1ccc(/C=C/C(=O)Nc2cccc(S(=O)(=O)N3CCOCC3)c2)o1 | -11% | 16% | -9 | 2.5 | 8 | ? | 13µM*
O=C(Nc1cccc(-c2nc3cccnc3s2)c1)c1ccco1 | ? | nt | -8 | 1.0 | -11 | 8.9 | -3%
Cc1ccc(C)c(NC(=S)N2CCN(S(C)(=O)=O)CC2)c1 | -0.6% | -0.7% | 1 | 0.3 | -15 | nt | 7%
Cc1ccc(NC(=O)COC(=O)CCc2c[nH]c3ccccc23)cc1 | 2.2% | -0.3% | nt | -1.1 | -4 | nt | nt
CCOc1ccc(CNC(=O)CCCn2ccc3cc(S(=O)(=O)N4CCCC4)ccc32)cc1 | -1.6% | 2.6% | -16 | 3.8 | 24 | nt | 18%
CC(SCC(=O)Nc1ccccc1Br)c1nc2ccccc2c(=O)[nH]1 (configuration not stated) | 0.1% | -1.2% | nt | -0.3 | -9 | nt | nt
c1ccc(C2CCCN(Cc3nc(CC4CC4)no3)CC2)cc1 (configuration not stated) | nt | 2.8% | 6 | 1.7 | 0 | -0.1 | 3%
COc1cccc(C(=O)Nc2nc3c(s2)CCCC3)c1 | -2.0% | 4.8% | nt | 1.8 | -19 | nt | nt
CCN(CC)S(=O)(=O)c1ccc(N2CCOCC2)c(NC(=O)C(C)(C)C)c1 | 0.8% | 2.7% | 13 | 0.0 | 0 | -0.9 | 21%
COCCNC(=O)C1(C)CCN(C(=O)c2cc(C)nn2C(C)(C)C)C1 (configuration not stated) | -0.8% | -0.1% | nt | -0.4 | nt | nt | nt
Cc1nn(Cc2ccccc2)c2c1C(c1cccnc1)C(C#N)=C(N)O2 (configuration not stated) | -2.8% | 1.7% | 14 | 0.3 | -3 | 3.8 | -5%
CC(c1nc2ccccc2c(=O)[nH]1)N1CCN(S(=O)(=O)c2ccc(F)c(Cl)c2)CC1 (configuration not stated) | -0.4% | -0.1% | nt | -0.8 | -16 | nt | nt
COc1ccc(C(=O)Nc2nc(-c3nnn(-c4ccc(F)cc4F)c3C)ns2)cc1 | -16% | 6.2% | nt | 0.1 | 4 | nt | nt
CCOC(=O)CSc1nnc(CNC(=O)c2ccc(S(=O)(=O)N3CCCC3)cc2)n1C | -2.1% | -1.0% | -30 | 1.6 | 3 | 1.3 | 7%
CC(=O)c1ccc(S(=O)(=O)N2CCN(C(=O)CSc3ccc(F)cc3)CC2)cc1 | nt | 0.2% | 8 | 0.0 | -3 | 1.1 | 7%
COc1cccc(-c2cc(-c3cccnc3)c(C#N)c(N)n2)c1 | 3.7% | 2.1% | 6 | nt | nt | 0.4 | 9%
COc1cc(C(=O)Nc2ccc3c(c2)OCCO3)c(-n2cnnn2)cc1OC | 0.1% | -2.2% | 1 | -1.1 | 2 | 2.1 | 9%
COc1ccc(NCc2nc3ccccc3n2CCOc2ccccc2)cc1 | -2.6% | -1.8% | 20 | 0.2 | 15 | 3.2 | -8%
O=C(O/N=C1/CCCc2occc21)c1ccccc1 | 0.2% | 0.1% | -5 | 0.0 | 10 | 2.1 | 24%
COc1ccc(-c2nc3cccc(C)n3c2NCc2ccco2)cc1OC | 14µM* | 3.9% | -11 | 0.7 | -19 | -0.4 | -1%
Cc1cccc(C)c1OCC(=O)NCC1CCCO1 (configuration not stated) | -1.8% | 0.2% | 5 | -0.2 | 0 | 2.1 | -16%
Cc1ccc(NC(=O)C2CCCN(S(=O)(=O)c3ccc(F)cc3)C2)cc1 (configuration not stated) | 0.8% | 0.9% | nt | 1.7 | -10 | nt | nt
N#CC1=C(N)C(C#N)(C#N)[C@H](c2ccsc2)[C@H]2COCC=C12 | 2.7% | 18%[38.3 µM] | -30 | -0.6 | 11 | ? | 2.5µM*
COc1cc(/C=N\NC(=O)OC(C)(C)C)ccc1OC(=O)c1ccco1 | nt | 4.6% | 1 | 1.4 | -12 | 4.8 | 4%
CC1(C)C2C(Cl)(Cl)C2(C)c2ccccc2N1C=O (configuration not stated) | nt | 0.5% | 17 | 1.1 | -2 | 2.1 | 28%

5 compounds picked at random from those above:
SMILES | ClpP mod | PINK1 expr mod | TRPV1 potentiator | TRPML1 ag | TRPML1 inh | Menin-MLL FL inh | Sfp PPTase inh
O=C(Nc1cccc(-c2nc3cccnc3s2)c1)c1ccco1 | ? | nt | -8 | 1.0 | -11 | 8.9 | -3%
Cc1cccc(C)c1OCC(=O)NCC1CCCO1 (configuration not stated) | -1.8% | 0.2% | 5 | -0.2 | 0 | 2.1 | -16%
CC(SCC(=O)Nc1ccccc1Br)c1nc2ccccc2c(=O)[nH]1 (configuration not stated) | 0.1% | -1.2% | nt | -0.3 | -9 | nt | nt
Cc1nn(Cc2ccccc2)c2c1C(c1cccnc1)C(C#N)=C(N)O2 (configuration not stated) | -2.8% | 1.7% | 14 | 0.3 | -3 | 3.8 | -5%
CCN(CC)S(=O)(=O)c1ccc(N2CCOCC2)c(NC(=O)C(C)(C)C)c1 | 0.8% | 2.7% | 13 | 0.0 | 0 | -0.9 | 21%

Following part.
SMILES | ClpP mod | PINK1 expr mod | TRPV1 potentiator | TRPML1 ag | TRPML1 inh | Menin-MLL FL inh | Sfp PPTase inh
COc1cccc(OCC(=O)NNC(=O)c2cccs2)c1 | -1.9% | -2.1% | 20 | 0.9 | 21 | -0.5 | 16%
CCCCNC(=O)c1cc(-c2ccc(OC)cc2)nc2n[nH]c(-c3cccc([N+](=O)[O-])c3)c12 | -1.0% | 8.6% | nt | 0.4 | -2 | nt | nt
CC(C)C[C@@H](CN)NC(=O)c1nc[nH]c1C(=O)N[C@@H](Cc1ccccc1)C(=O)CNC[C@H](C)NC(=O)c1nc[nH]c1C(=O)N[C@@H](C)C(=O)O | 1.7% | 0.3% | nt | -0.5 | 6 | nt | nt
CN1Cc2sc(NC(=S)NC(=O)c3ccccc3)c(C#N)c2CC1(C)C | nt | 2.4% | 2 | 3.3 | 6 | ? | 32µM*
COCc1cc(C)nc2c1C(=O)NC(c1ccc(Br)cc1)N2Cc1ccccc1 (configuration not stated) | 3.9% | ? | nt | 2.4 | -11 | nt | nt
O=C(O)c1ccc(OS(=O)(=O)c2ccc(Cl)s2)cc1 | 0.2% | -1.0% | 2 | 0.1 | -14 | nt | nt
Cn1c(CCNC(=O)c2cccs2)nnc1SCC(=O)Nc1nc(-c2ccccc2)cs1 | -2.5% | 5.0% | -1 | -0.1 | -10 | 0.9 | 2%
COc1oc(C(=O)NC2CCCCC2)c(-c2ccc(Cl)cc2)c1S(=O)(=O)c1ccccc1 | -0.7% | -6.6% | nt | 1.7 | -11 | nt | nt
Cc1noc(C)c1COC(=O)c1ccc(S(=O)(=O)N2CCCCC2)cc1 | nt | -1.6% | 0 | 0.5 | 8 | 0.3 | -17%
C[C@@]12CCC[C@@](C)(C(=O)O)C1CC[C@@]13C[C@@H](NCc4ccccc4)[C@@](C)(CCC12)C3 (some centres not stated) | 0.2% | -1.3% | -2 | 0.1 | 12 | nt | nt
Cc1ccc(CNC(=O)Cn2cnc3cc([N+](=O)[O-])ccc3c2=O)cc1 | -6.1% | -2.5% | -4 | 0.5 | -3 | -3.8 | -3%
CCn1nnnc1SCC(=O)Nc1nnc(C(C)C)s1 | 0.6% | -1.2% | 2 | -0.1 | 42 | -0.5 | 3%
COc1ccccc1NC(=O)Cn1c(=O)oc2cc(S(=O)(=O)NCc3ccccc3)ccc21 | 0.9% | 0.9% | nt | -1.0 | 37 | nt | nt
CCN(CC(=O)Nc1ccc(NC(C)=O)cc1)C(=O)/C=C/c1cn(-c2ccccc2)nc1-c1cccs1 | ? | 6.5% | 17 | 0.8 | -10 | nt | nt
Cc1ccc(-c2csc(NC(=O)C3=NN(C4CCS(=O)(=O)C4)C(=O)CC3)n2)cc1 (configuration not stated) | 0.3% | 3.7% | 7 | nt | nt | -2.4 | 4%
Cc1ccccc1NC(=S)N(Cc1ccccc1)Cc1cccs1 | -0.1% | 2.5% | -1 | 0.4 | 0 | -4.3 | 12%
O=C(CCCn1c(SCc2cccc(F)c2)nc2ccccc2c1=O)NCC1CCCO1 (configuration not stated) | -2.8% | 2.4% | 2 | 0.8 | 13 | 0.0 | -9%
NC(=O)c1ccc(N2CCNC(=O)C2)c([N+](=O)[O-])c1 | nt | -0.1% | ? | 0.7 | 34 | 1.0 | 7%
CC(c1ccccc1)N1C(=O)NC(NC(=O)c2cccnc2)(C(F)(F)F)C1=O (configuration not stated) | -0.4% | -1.0% | 7 | -0.8 | 10 | 3.3 | 16%
Cc1c(C(=O)N(C)C)sc2c1c(=O)n(-c1ccc(Cl)cc1)c(=O)n2Cc1ccccc1F | 0.2% | -0.2% | nt | 1.0 | 3 | nt | nt
O=C1OCc2ccc(NC(=O)c3ccccc3C(=O)O)cc21 | -11% | -0.1% | 15 | 0.7 | 1 | nt | 5%
CCOC(=O)c1ccc(-c2c(-c3ccccc3OC)sc3cc4c(cc23)OCO4)cc1F | 4.1% | 0.3% | 5 | 1.0 | -2 | nt | nt
O=C(c1ccc([N+](=O)[O-])cc1)N1CCc2ccccc2C1 | nt | 0.2% | -1 | -0.8 | -3 | 0.2 | 3%
O=Cc1cn(CC(=O)Nc2ccc3c(c2)OCO3)c2ccccc12 | nt | 1.0% | 15 | -0.9 | 7 | 2.5 | 16%
COC(=O)c1ccc2c(=O)n(CCCCCC(=O)NCCNC(C)=O)c(=O)[nH]c2c1 | -7.4% | 0.2% | 0 | 1.2 | 3 | -0.6 | 13%
COc1ccc(OCC(=O)Nc2c3c(nn2-c2ccccc2)CS(=O)(=O)C3)cc1 | 3.9% | -0.4% | 1 | -1.0 | -4 | nt | -3%
O=C(Cc1ccc([N+](=O)[O-])cc1)N1CCN=C1SCc1ccccc1 | -2.6% | 6.3% | -29 | 0.6 | 10 | 4.8 | ?
C=CCC1(C#N)C(=S)NC(C)=C(C(=O)OCC)C1c1ccccc1 (configuration not stated) | 1.4% | -0.3% | 3 | 1.5 | -3 | 0.2 | 14%
COc1ccccc1CNC(=O)CN1C(=O)c2ccccc2S1(=O)=O | nt | 0.5% | 9 | 0.2 | 0 | -0.5 | 5%
COCCNC(=O)c1cc(-c2ccccc2C)nn1CC1CC(c2cccnc2)=NO1 (configuration not stated) | -2.5% | -0.6% | nt | 0.1 | -5 | nt | nt

Screening data: PubChem, National Center for Advancing Translational Sciences (NCATS)
